# NOMO-1 viab = STK33 inhibitor candidate reducing NOMO-1 cell viability | NOMO-1 AML viability, CellTiter-Glo luminescence, 72 h | inhibition, % (no concentration beside the values) | 7.5% of 37,000 active;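 active means most replicates above 80%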;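 further: wells of about 30 µL received 25 nL stock; 0% = median of vehicle wells and 100% = reference inhibitor level; the first replicate is given; inactives centre near 10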
# * marks the source's active call; other numbers are inactive results. This is a subset (hit frequency here may not be typical).
SMILES,NOMO-1 viab
COc1ccc(NC(=O)Nc2cccc3c2O[C@@H](CN(C)S(C)(=O)=O)[C@@H](C)CN([C@H](C)CO)C3=O)cc1,-2.7
NC(=O)c1cc(Cl)c(Cl)cc1C(N)=O,-18.6
C[C@@H]1CN([C@@H](C)CO)C(=O)c2cc(NC(=O)Nc3ccc4c(c3)OCO4)ccc2O[C@H]1CN(C)Cc1ccc(C(=O)Nc2ccccc2N)cc1,58.1
C[C@@H]1CN([C@H](C)CO)C(=O)Cc2cc(NC(=O)Nc3cccc4ccccc34)ccc2O[C@H]1CN(C)S(=O)(=O)c1ccc(F)cc1,-28.3
COc1ccc(CN(C)C[C@@H]2Oc3c(NC(=O)c4ccc(-c5nccs5)cc4)cccc3C(=O)N([C@H](C)CO)C[C@H]2C)cc1,41.2
CCOC(=O)c1sc(SCCS(=O)(=O)c2ccc(Cl)cc2)c2c1CCCC2=O,30.2
Cn1c(Cc2csc(N)n2)nnc1SC/C=C/c1ccccc1,23.5
COc1ccc(NC(=O)N(C)C[C@H]2Oc3ccc(NS(=O)(=O)c4ccccc4)cc3CC(=O)N([C@H](C)CO)C[C@H]2C)cc1,-2.6
C[C@@H]1CN([C@H](C)CO)C(=O)Cc2cc(NC(=O)Cn3cnnn3)ccc2O[C@@H]1CN(C)S(=O)(=O)c1cn(C)cn1,5.1
C[C@H]1CN([C@@H](C)CO)C(=O)c2cc(NC(=O)Nc3ccc4c(c3)OCO4)ccc2O[C@H]1CN(C)C,-1.4
CC(=O)Nc1cccc(NC(=O)CNc2ccc(C(F)(F)F)cc2[N+](=O)[O-])c1,-11.6
CCN(CC)CCNc1ncnc2scc(-c3ccc(F)cc3)c12,39.0
Cc1noc(C)c1NC(=O)N(C)C[C@@H]1Oc2c(cccc2N(C)C)C(=O)N([C@@H](C)CO)C[C@@H]1C,18.9
COc1ccc(C2=NN(S(C)(=O)=O)C(c3ccccc3OC)C2)cc1 (configuration not stated),65.1
Cc1nc(C2C(=O)c3ccc(O)c(O)c3OC2C(F)(F)F)cs1 (configuration not stated),107.0*
CC(C)NC(=O)N(C)C[C@@H]1Oc2ccc(NS(=O)(=O)c3cn(C)cn3)cc2CC(=O)N([C@@H](C)CO)C[C@@H]1C,17.3
O=C1c2ccccc2C(=O)N1CN(C(=O)C(F)(F)F)c1ccc(Cl)cc1,6.0
O=C(c1ccccc1)c1ccc(OCC(O)Cn2cnc3ccccc32)cc1 (configuration not stated),72.9
CCOC(=O)c1sc(SCc2ccccc2)c2c1-c1sccc1N(C)S2(=O)=O,-18.2
C[C@@H]1CN([C@H](C)CO)C(=O)c2cc(NS(C)(=O)=O)ccc2O[C@@H]1CN(C)S(=O)(=O)c1ccc(Cl)cc1,-17.0
Cc1cc(O)c(Cc2c(O)cc(C)oc2=O)c(=O)o1,0.9
O=C(CSc1nnc(-c2ccncc2)n1-c1ccccc1)Nc1ccc(Cl)c(Cl)c1,33.8
CC(C)NC(=O)Nc1ccc2c(c1)CC(=O)N([C@H](C)CO)C[C@@H](C)[C@@H](CN(C)Cc1ccc(C(F)(F)F)cc1)O2,26.9
C[C@@H]1CN([C@H](C)CO)C(=O)Cc2cc(NS(=O)(=O)c3cccs3)ccc2O[C@H]1CN(C)Cc1ccc2c(c1)OCO2,37.5
C[C@@H]1CN([C@@H](C)CO)C(=O)c2cccc(NC(=O)c3nc4ccccc4s3)c2O[C@H]1CN(C)Cc1ccc(Cl)c(Cl)c1,48.8
COc1ccc(S(=O)(=O)N(C)C[C@@H]2Oc3ccc(NC(=O)Nc4ccc5c(c4)OCO5)cc3C(=O)N([C@H](C)CO)C[C@H]2C)cc1,-13.7
CCc1cccc(C)c1NC(=O)C(C)NS(=O)(=O)c1ccc(C)cc1 (configuration not stated),-15.8
S=C(NCCc1cnc[nH]1)Nc1ccc(Oc2ccccc2)cc1,18.3
COc1ccccc1NC(=O)CSc1nnc(-c2ccc(Br)cc2)n1C,8.3
CC(C)NC(=O)N(C)C[C@@H]1Oc2ccc(NC(=O)CCC(F)(F)F)cc2CC(=O)N([C@@H](C)CO)C[C@@H]1C,8.2

# Three compounds from above, sorted by SMILES length, lowest first.
SMILES,NOMO-1 viab
Cc1cc(O)c(Cc2c(O)cc(C)oc2=O)c(=O)o1,0.9
S=C(NCCc1cnc[nH]1)Nc1ccc(Oc2ccccc2)cc1,18.3
O=C(CSc1nnc(-c2ccncc2)n1-c1ccccc1)Nc1ccc(Cl)c(Cl)c1,33.8

# (continued)
SMILES,NOMO-1 viab
O=C(NCCCn1ccnc1)c1cc(-c2cccnc2)nc2ccc(Br)cc12,-12.3
C[C@H]1CN([C@@H](C)CO)C(=O)c2cccc(NC(=O)Nc3ccc(C(F)(F)F)cc3)c2O[C@H]1CN(C)C,0.4
N#Cc1c(NC(=S)NC(=O)c2cncc(Br)c2)sc2c1CCCC2,-6.1
C/C=C/C1=C(Cl)C(=O)[C@@H](O)[C@@]1(O)C(=O)OC,107.5*
C[C@@H]1CCCCO[C@@H](CN(C)C)[C@@H](C)CN([C@H](C)CO)C(=O)c2cc(NC(=O)C3CCCCC3)ccc2O1,13.1
C[C@@H]1CN([C@@H](C)CO)C(=O)Cc2cc(NC(=O)C3CCCCC3)ccc2O[C@@H]1CN(C)S(=O)(=O)c1ccc(F)cc1,12.0
O=C(c1ccccc1)c1nnn(-c2ccccc2)c1Nc1ccccc1,42.0
COc1ccc(CN2C(=O)c3cccc4cccc(c34)C2=O)cc1S(=O)(=O)N1CCCCC1,59.1
Cc1ccccc1OC(C)c1nc(-c2ccccn2)no1 (configuration not stated),15.2
C[C@@H]1CN([C@@H](C)CO)C(=O)c2cc(NC(=O)c3ccncc3)ccc2O[C@H]1CN(C)Cc1ccc(Cl)c(Cl)c1,44.6
Cc1ccc(S(=O)(=O)NC(=O)COc2cccc3ccccc23)c(C)c1,-17.7
CS(=O)(=O)N(CC(=O)Nc1ccccc1F)c1ccc(F)cc1,-2.8
C[C@@H]1CN([C@@H](C)CO)C(=O)Cc2cc(NC(=O)Nc3ccc(F)cc3)ccc2O[C@@H]1CN(C)S(=O)(=O)c1cccs1,-4.5
Cc1cc(C(=O)Nc2cccc3c2O[C@H](CN(C)S(=O)(=O)c2cccs2)[C@@H](C)CN([C@@H](C)CO)C3=O)n(C)n1,-4.5
COc1ccc(S(=O)(=O)N(C)C[C@H]2Oc3ccc(NS(=O)(=O)c4c(C)noc4C)cc3CC(=O)N([C@H](C)CO)C[C@H]2C)cc1,5.9
COc1cccc(CN2c3cccc4cccc(c34)S2(=O)=O)c1,24.3
CN(C)c1ccc(-c2nc3ccc4ccccc4c3c3c2CCC3)cc1,20.9
C[C@H](CO)N1C[C@H](C)[C@H](CN(C)Cc2ccc3c(c2)OCO3)Oc2c(NS(=O)(=O)c3cn(C)cn3)cccc2C1=O,7.7
COC(=O)c1ccc2c(=O)n(CCCN3CCOCC3)c(=S)[nH]c2c1,14.2
C[C@H]1CN([C@@H](C)CO)C(=O)c2cccc(NC(=O)CCCCCC(=O)Nc3ccccc3N)c2O[C@H]1CN(C)C,27.7
Cc1cc(C)nc(SCC(=O)NN)n1,12.7
C[C@@H]1CN([C@@H](C)CO)C(=O)Cc2cc(NC(=O)Nc3ccccc3)ccc2O[C@@H]1CN(C)C(=O)NC1CCCCC1,12.8
COc1ccc(C(=O)NC(CO)(CO)CO)cc1OC,1.1
Cc1noc(C)c1NC(=O)N(C)C[C@H]1OCCCC[C@@H](C)Oc2ccc(NC(=O)C3CCCCC3)cc2C(=O)N([C@H](C)CO)C[C@@H]1C,13.1
C[C@@H]1CN([C@@H](C)CO)C(=O)c2cccc(NC(=O)c3ccncc3)c2O[C@@H]1CN(C)C(=O)Nc1ccc2c(c1)OCO2,-6.2
COc1ccc(NC(=O)N(C)C[C@H]2Oc3ccc(NC(=O)Cn4cnnn4)cc3C(=O)N([C@H](C)CO)C[C@@H]2C)cc1,2.0
Cc1ccc(S(=O)(=O)N(C)C[C@H]2Oc3c(NC(=O)NC(C)C)cccc3C(=O)N([C@@H](C)CO)C[C@H]2C)cc1,31.1
C[C@@H]1CN([C@H](C)CO)C(=O)Cc2cc(NS(=O)(=O)c3ccccc3)ccc2O[C@H]1CN(C)C(=O)Nc1ccc(F)cc1,11.7
CCn1c(SCC(=O)Nc2cccc(OC)c2)nc2scc(-c3ccccc3)c2c1=O,22.4
O=C(COc1cc(Cl)c(Cl)cc1Cl)Nc1ccccc1[N+](=O)[O-],-9.8
C[C@@H]1CN([C@H](C)CO)C(=O)c2cccc(NC(=O)Nc3ccccc3)c2O[C@@H]1CN(C)Cc1ccc2c(c1)OCO2,-10.1
Cc1ccc(S(=O)(=O)N(C)C[C@H]2Oc3c(NC(=O)NC(C)C)cccc3C(=O)N([C@H](C)CO)C[C@H]2C)cc1,-1.5
C[C@H](CO)N1C[C@H](C)[C@H](CN(C)S(=O)(=O)c2ccccc2)Oc2ccc(NS(=O)(=O)c3ccc(F)cc3)cc2CC1=O,27.7
Cc1noc(C)c1NC(=O)Nc1ccc2c(c1)C(=O)N([C@@H](C)CO)C[C@@H](C)[C@@H](CN(C)C(=O)NC(C)C)O2,-14.3
CS(=O)(=O)N(CC(=O)Nc1ccccc1C(F)(F)F)c1cc(Cl)c(Cl)cc1Cl,4.9
C[C@@H]1CN([C@H](C)CO)C(=O)c2cccc(NC(=O)CCCCCC(=O)Nc3ccccc3N)c2O[C@@H]1CN(C)CC1CC1,46.2
C[C@@H]1CN([C@@H](C)CO)C(=O)c2cc(NC(=O)c3ccncc3)ccc2O[C@@H]1CN(C)Cc1ccncc1,-12.5
CNC[C@H]1Oc2c(NC(=O)NC3CCCCC3)cccc2C(=O)N([C@@H](C)CO)C[C@H]1C,14.6
CCn1cc(C(C)NC(=O)Nc2ccccc2C(=O)OC)c(C)n1 (configuration not stated),3.7
Cc1ccc(S(=O)(=O)N(C)C[C@@H]2Oc3c(NC(=O)Nc4ccc(C(F)(F)F)cc4)cccc3C(=O)N([C@H](C)CO)C[C@@H]2C)cc1,66.7
C[C@H]1CC[C@@H]2[C@@H](C(=O)c3c(O)c([C@]4(O)CC[C@@H](O)[C@H]5O[C@H]54)cn(O)c3=O)[C@@H](C)C=C[C@H]2C1,120.0*
C[C@H](CO)N1C[C@H](C)[C@@H](CN(C)Cc2ccc(-c3ccccc3)cc2)Oc2ccc(NS(=O)(=O)c3ccccc3)cc2C1=O,18.6
COc1ccc(NC(=O)N(C)C[C@H]2Oc3ccc(NC(=O)Nc4c(C)noc4C)cc3CC(=O)N([C@@H](C)CO)C[C@H]2C)cc1,9.6
CSc1sc(C(=O)NN)cc1S(=O)(=O)C(C)C,49.8
C[C@H](CO)N1C[C@H](C)[C@@H](CN(C)Cc2ccc(C(=O)Nc3ccccc3N)cc2)Oc2c(NS(C)(=O)=O)cccc2C1=O,30.3
Cc1noc(C)c1NC(=O)Nc1cccc2c1O[C@H](CN(C)Cc1ccc(-c3ccccc3)cc1)[C@H](C)CN([C@H](C)CO)C2=O,21.8
CC(C)NC(=O)N(C)C[C@H]1Oc2c(NC(=O)C3CCOCC3)cccc2C(=O)N([C@@H](C)CO)C[C@H]1C,0.1
C[C@@H]1CN([C@H](C)CO)C(=O)c2cc(NC(=O)CCCCCC(=O)Nc3ccccc3N)ccc2O[C@H]1CN(C)C(=O)Nc1ccccc1,32.7
N#Cc1ccc(NC(=O)Cn2cnc([N+](=O)[O-])c2)cc1,4.4
C[C@H]1CN([C@@H](C)CO)C(=O)Cc2cc(NC(=O)Nc3cccc4ccccc34)ccc2O[C@@H]1CN(C)S(=O)(=O)c1cn(C)cn1,-8.1

# Quoted at random: seven entries already listed, in no set order.
SMILES,NOMO-1 viab
C[C@H]1CC[C@@H]2[C@@H](C(=O)c3c(O)c([C@]4(O)CC[C@@H](O)[C@H]5O[C@H]54)cn(O)c3=O)[C@@H](C)C=C[C@H]2C1,120.0*
CSc1sc(C(=O)NN)cc1S(=O)(=O)C(C)C,49.8
C[C@@H]1CN([C@H](C)CO)C(=O)c2cc(NC(=O)CCCCCC(=O)Nc3ccccc3N)ccc2O[C@H]1CN(C)C(=O)Nc1ccccc1,32.7
N#Cc1ccc(NC(=O)Cn2cnc([N+](=O)[O-])c2)cc1,4.4
C[C@H](CO)N1C[C@H](C)[C@@H](CN(C)Cc2ccc(C(=O)Nc3ccccc3N)cc2)Oc2c(NS(C)(=O)=O)cccc2C1=O,30.3
C[C@H](CO)N1C[C@H](C)[C@@H](CN(C)Cc2ccc(-c3ccccc3)cc2)Oc2ccc(NS(=O)(=O)c3ccccc3)cc2C1=O,18.6
COc1ccc(NC(=O)N(C)C[C@H]2Oc3ccc(NC(=O)Nc4c(C)noc4C)cc3CC(=O)N([C@@H](C)CO)C[C@H]2C)cc1,9.6

# Next section.
SMILES,NOMO-1 viab
CC(=O)c1c(C)oc2ccc(N(C(=O)c3ccc(C)cc3)S(=O)(=O)c3cccc4cccnc34)cc12,10.3
COc1ccc(OC)c(Nc2ncnc3c2cnn3-c2ccccc2)c1,-6.4
COc1ccc(NC(=O)N(C)C[C@H]2Oc3c(NC(=O)C4CCOCC4)cccc3C(=O)N([C@H](C)CO)C[C@@H]2C)cc1,2.7
CN(C)CCNC(=O)c1cc2ccccc2oc1=O,29.4
Cc1nn(CCCNC(=O)C2CCCO2)cc1Br (configuration not stated),-24.4
Cc1noc(C)c1NC(=O)Nc1ccc2c(c1)C(=O)N([C@H](C)CO)C[C@H](C)[C@H](CN(C)S(=O)(=O)c1ccc(F)cc1)O2,11.3
CCCCC[C@H](O)CC(=O)CCc1ccc(O)c(OC)c1,37.5
COc1ccc(C(=O)CSc2nc3ccc(OC)cc3[nH]2)cc1,3.9
C[C@@H]1CCCCO[C@@H](CN(C)Cc2ccc3c(c2)OCO3)[C@@H](C)CN([C@H](C)CO)C(=O)c2cc(NC(=O)Cc3ccccc3)ccc2O1,22.2
COc1ccc(S(=O)(=O)Nc2ccc3c(c2)C(=O)N([C@H](C)CO)C[C@@H](C)[C@H](CN(C)Cc2ccc(Oc4ccccc4)cc2)O3)cc1,105.2*
C[C@H]1CN([C@@H](C)CO)C(=O)c2cc(NC(=O)C3CC3)ccc2O[C@H]1CN(C)C(=O)Nc1ccccc1,20.5
C[C@H](CO)N1C[C@H](C)[C@@H](CN(C)C(=O)Nc2ccccc2)Oc2ccc(NS(=O)(=O)c3ccc(F)cc3)cc2C1=O,11.7

# Screens from PubChem BioAssay.
